Screening results as filed in PubChem BioAssay.
Rango release inh = qHTS Assay for Inhibitors of RanGTP induced Rango (Ran-regulated importin-beta cargo) - Importin beta complex dissociation; Snurportin-1 (Homo sapiens) + GTP-binding nuclear protein Ran (Homo sapiens) + Importin …; Biochemical FRET Rango-importin beta, RanGTP-induced dissociation; Potency, µM (top dose mostly 46.1 µM), for the others: top-dose activity change, negative = inhibition; 340,000 tested, 0.071% active; AID 540253, 2011; active means falling FRET ratio curve, often poorly fitted, with flat reads before Ran was added; inconclusive means other falling curves, or compound fluorescence or quenching; inactive means flat or rising ratio curve;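 note: potency is the fitted concentration of half-maximal effect; % of control where 0% means no effect; nearly all actives have a fitted effect of over 45% in size; -100% = wells without RanGTP and RCC1; the record marks most hits as doubtful in a second field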
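Compounds preincubate 5 min with complex of recombinant Rango and importin beta in PBS with 1 mM DTT. Ran (0.6 uM) loaded with 2 mM GTP plus 0.2 uM RCC1 starts dissociation; FRET is recorded 45 min later.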
GLA inh pH 4.5 = qHTS Assay for Inhibitors of Human alpha-Galactosidase at pH 4.5; AID 1467, 2008; activity change, negative = inhibition, % at 105 µM; purified enzyme, 4-MU-alpha-Gal fluorescence, pH 4.5; 230,000 tested, under 10 active; Alpha-galactosidase A (Homo sapiens), P06280; inconclusive = small, poorly fitted or top-dose-only inhibition, or a rising curve; inactive = flat fitted curve, though single readings scatter; no compound was filed as active;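 note: 0% = full activity with enzyme and -100% = basal without enzyme; dose as in the result columns while the protocol names 77 µM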
Target sequence (P06280 whole entry, looked up): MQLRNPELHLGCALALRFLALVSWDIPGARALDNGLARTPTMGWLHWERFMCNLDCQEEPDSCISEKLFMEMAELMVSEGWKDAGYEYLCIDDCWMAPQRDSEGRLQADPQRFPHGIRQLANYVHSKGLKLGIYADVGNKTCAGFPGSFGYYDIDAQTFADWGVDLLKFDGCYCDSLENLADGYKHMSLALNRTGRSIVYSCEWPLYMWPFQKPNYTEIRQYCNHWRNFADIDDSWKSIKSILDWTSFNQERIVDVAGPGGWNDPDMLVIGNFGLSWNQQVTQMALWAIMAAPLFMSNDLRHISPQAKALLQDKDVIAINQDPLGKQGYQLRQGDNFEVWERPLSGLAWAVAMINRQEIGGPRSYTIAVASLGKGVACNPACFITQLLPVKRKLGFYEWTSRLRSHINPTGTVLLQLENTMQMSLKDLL
miR-21 FLuc = qHTS Assay for Modulators of miRNAs and/orActivators of miR-21; HeLa miR-21 FLuc reporter, luciferase, 48 h; Potency, µM (highest dose often 38.3 µM), for inactives: at the top dose reporter change, positive = more light; 340,000 tested, under 10 active; AID 2288, 2010; active = well fitted rising curve with a large enough effect; inconclusive = small, poorly fitted or top-dose-only effect; inactive = no such curve, though single readings can be large or run the other way;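 note: % of control where 0% means no effect; miR-21 action dims this reporter so a rising signal means less miR-21 action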
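HeLa cells endogenously expressing miR-21, stably carrying CMV-driven firefly luciferase with a downstream miR-21 binding site, 2000 cells/well. Titrations up to approximately 40 uM, 48 hours; luciferase luminescence read.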
Rango complex inh = qHTS Assay for Inhibitors of Rango (Ran-regulated importin-beta cargo) - Importin beta complex formation; Importin subunit beta-1 (Homo sapiens), Q14974; Rango CFP/YFP FRET sensor + importin beta, 45 min; Potency, µM (highest dose often 92.2 µM), for inactives: at the top dose inhibition of complex formation; 340,000 tested, 0.031% active; AID 540263, 2011; active = rising FRET ratio curve, often small or poorly fitted; inconclusive = mostly compound fluorescence or quenching in the first reads; inactive = flat curves in all reads;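 note: potency is the fitted concentration of half-maximal effect; 0% = DMSO wells and 100% = buffer wells lacking importin beta; nearly all actives have a fitted effect of over 15% in size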
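FRET biosensor Rango (snurportin 1 IBB between N-terminal EYFP and C-terminal Cerulean), 50 nM in PBS/1 mM DTT/0.02% Tween-20/0.1% BSA, preincubated 5 min RT with compound; 0.125 microM importin beta added, 45 min RT, CFP/YFP FRET ratio read.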
Starred values were filed as active, the others as inactive; ? = inconclusive; / = not tested or not shown; & = joins results of further samples; [ ] = remark or other dose.

item	GLA inh pH 4.5	Rango release inh	miR-21 FLuc	SMILES	Rango complex inh
1	/	-0.5%	-2.0%	COc1cccc(-c2c(C(=O)N/N=C(\C)c3ccncc3)nnn2-c2nonc2N)c1	0.4%
2	/	0.2%	-5.0%	Cc1cc(NS(=O)(=O)c2ccc(NC(=O)COc3ccc(Cl)c(C)c3)cc2)no1	-1.0%
3	/	9.3%	?	COc1ccccc1C1c2ccc3ccccc3c2Oc2ncn(CCN(C)C)c(=N)c21 (stereo not given)	3.0%
4	-4.1[21.1 µM]	-15.0%	9.7%	CC(=O)c1c(C)nc2ccc(Br)cc2c1-c1ccccc1	-1.2%
5	/	?	/	COc1ccc2[nH]c3c(c2c1)CCN1C(=O)C(CC(=O)NCCc2ccccn2)C[C@H](C(=O)N2CCCCC2)[C@@]31C (stereo not given in full)	?
6	4.3	?	7.6%	NC(=O)C1CCN(Cc2nc3cc(Cl)ccc3c(=O)[nH]2)CC1	?
7	-6.8	-6.1%	-15.0%	CCOC(=O)C1(CC2CC2)CCN(C(=O)c2cc(OC)nc3ccccc23)CC1	0.3%
8	1.5	-10.5%	-30.7%	Cc1ccc(F)cc1NC(=O)c1cccc(N(C)C)c1	0.8%
9	/	-4.2%	-2.5%	CC(C)C[C@H](NC(=O)N1CCn2c1nc1ccccc12)C(=O)NC1CCCCC1	-1.1%
10	-2.4	3.6%	21.8%	COc1ccc(Br)cc1[C@H]1[C@@H]2C=CCC[C@@]2(C)C(=O)N1Cc1ccccc1	0.5%
11	0.7	-19.2%	-56.0%	CCOc1ccc2nc(NC(=O)Cn3[nH]c(=O)c4ccccc4c3=O)sc2c1	?
12	7.7	-6.7%	-5.7%	CC(C)OC(=O)c1c(NC(=O)c2ccco2)sc2c1CCCC2	0.3%
13	2.3	-2.6%	-9.7%	COCCOCCOCCC(=O)NC1CC2CCC1(C)C2(C)C (stereo not given)	-0.3%
14	0.5	0.9%	-0.9%	COc1cc(Cl)cc(C2NC(=S)NC(c3ccccc3)=C2C(C)=O)c1OCC(=O)O (stereo not given)	-0.6%
15	-0.3	2.9%	-6.1%&1.3%	CCc1cccc(NC(=O)CCNS(=O)(=O)c2cccc3nonc23)c1	-0.4%
16	-14.5	3.5%	?	CCN1CCN(Cc2ccc(NC(=O)c3ccc(C)c(NC(=O)c4cc(-c5ccc(Br)cc5)n[nH]4)c3)cc2C(F)(F)F)CC1	-3.8%
17	/	-12.6%	-13.7%	CCC(CO)Nc1ncnc2onc(-c3ccc(F)cc3)c12 (stereo not given)	-0.5%
18	/	1.9%	/	O=C(Cc1ccc2ccccc2c1)NC(Cc1ccccc1)C(=O)O (stereo not given)	0.6%
19	/	-0.5%	/	CC(OC(=O)C1CCN(S(=O)(=O)c2ccc3c(c2)OCCO3)CC1)C(=O)NC1(C#N)CCCCC1 (stereo not given)	-1.9%
20	6.8	-10.7%	-0.6%	COC(=O)Cc1sc(-c2ccccn2)nc1-c1ccccc1	-2.9%
21	-9.5	?	16.4%	CC1=Nc2ccccc2/C1=C/c1sc(=N)n(-c2nccs2)c1O	?
22	/	-14.4%	/	Cc1ccccc1NC(=O)COC(=O)C1=COCCO1	5.6%
23	3.2	2.9%	-27.3%	Cc1cccc2nc(CSc3nc4ccccc4[nH]3)cn12	1.2%
24	5.2	-3.1%	-0.1%	CC(C)(C)c1ccc(-c2cc(C(=O)NNC(=O)Nc3ccccc3)c3ccccc3n2)cc1	3.0%
25	-2.2	-0.4%	-21.3%	CCc1cccc(NC(=O)Cc2cn(C)c3ccccc23)c1	-4.2%
26	/	?	-0.5%	CCn1cnc2c1c(=O)n(CC(=O)NN)c(=O)n2Cc1ccccc1	-0.3%
27	2.7	10.4%	5.3%	CC(=O)NC(Nc1c(C)n(C)n(-c2ccccc2)c1=O)C(Cl)(Cl)Cl (stereo not given)	0.2%
28	2.4	-4.0%	-27.6%	CCNCc1ccc(OCc2ccccc2F)c(OC)c1	1.2%
29	18.1	-18.5%	-4.7%	CC1(C)CC(=O)c2cc(OCC(=O)NCc3cccnc3)ccc2O1	-1.3%
30	-9.3	0.5%	-53.2%	O=C(Nc1ccccc1)C1=C[C@H](c2ccc3c(c2)OCO3)C[C@H](OCCCCO)O1	2.9%
31	-1.6	-12.4%	0.3%	COc1ccc2c(CC(=O)Nc3c(C)n(C)n(-c4ccccc4)c3=O)coc2c1	3.8%
32	/	-14.4%	-5.5%	O=C(NCc1ccccc1Cl)C1CCC(=O)N(C2CCCC2)C1 (stereo not given)	3.7%
33	3.7	-6.0%	-0.4%	COC(=O)CNC(=O)c1nn(-c2cccc(OC)c2)c(=O)c2ccccc12	?
34	/	15.7%	/	CCn1ccc(=O)c2cc3c(cc21)OCO3	0.0%
35	/	-10.4%	/	COc1ccc2oc(C(=O)OC(C)C(=O)NC3(C#N)CCCCC3)c(C)c2c1 (stereo not given)	-0.3%
36	2.2	-3.5%	-4.4%	Cn1c(=O)[nH]c(=O)c2c1nc(N1CCOCC1)n2CCSc1nnnn1-c1ccccc1	-2.2%

Random excerpt: seven records from the list
item	GLA inh pH 4.5	Rango release inh	miR-21 FLuc	SMILES	Rango complex inh
28	2.4	-4.0%	-27.6%	CCNCc1ccc(OCc2ccccc2F)c(OC)c1	1.2%
36	2.2	-3.5%	-4.4%	Cn1c(=O)[nH]c(=O)c2c1nc(N1CCOCC1)n2CCSc1nnnn1-c1ccccc1	-2.2%
32	/	-14.4%	-5.5%	O=C(NCc1ccccc1Cl)C1CCC(=O)N(C2CCCC2)C1 (stereo not given)	3.7%
31	-1.6	-12.4%	0.3%	COc1ccc2c(CC(=O)Nc3c(C)n(C)n(-c4ccccc4)c3=O)coc2c1	3.8%
35	/	-10.4%	/	COc1ccc2oc(C(=O)OC(C)C(=O)NC3(C#N)CCCCC3)c(C)c2c1 (stereo not given)	-0.3%
34	/	15.7%	/	CCn1ccc(=O)c2cc3c(cc21)OCO3	0.0%
30	-9.3	0.5%	-53.2%	O=C(Nc1ccccc1)C1=C[C@H](c2ccc3c(c2)OCO3)C[C@H](OCCCCO)O1	2.9%

Other compounds:
item	GLA inh pH 4.5	Rango release inh	miR-21 FLuc	SMILES	Rango complex inh
37	6.9	-0.5%	21.7%	Cc1oc(=O)c(NC(=O)c2ccccc2)cc1C(=O)c1ccccc1	-4.3%
38	-4.2	-21.8%	-3.5%	CCOc1cc(/C=N/n2cnnc2)cc(Br)c1O	-2.6%
39	/	5.0%	-2.5%	COc1cccc(N2CCN(C(=O)CN3C(=O)NC4(CCCC4)C3=O)CC2)c1	-2.1%
40	-2.7	0.9%	3.3%	C#CC1CCCCC1NC(=O)Nc1cnccc1C(F)(F)F (stereo not given)	-0.2%
41	/	-1.2%	/	Cc1ccccc1-c1cccc([C@@H]2C[C@H]3[C@H](CON3C)CN2Cc2cc(Cl)cc(Cl)c2)c1	1.0%
42	1.4	2.5%	-4.5%	O=c1ccccn1Cc1ccccc1F	-1.0%
43	/	4.3%	-3.6%	COc1ccc(C(=O)Nc2ccnn2C2CCN(Cc3ccn[nH]3)CC2)cc1	-1.0%
44	/	1.8%	-15.1%	COc1ccc(CCN(C)C(=O)c2c(C)nn(CC(C)C)c2Cl)cc1OC	2.9%
45	/	2.3%	/	Cc1ccc(CNC(=O)c2ccc(C)c(S(=O)(=O)N3CCCCC3)c2)cc1	4.9%
46	-11.4	6.7%	-8.1%	O=C(CNc1cccc(C(F)(F)F)c1)N/N=C/C1CCCCC1	1.7%
47	1.5	3.8%	-5.9%	O=C(Nc1cccnc1N1CCOCC1)c1ccco1	5.4%
48	/	-9.3%	/	COc1ccc(N(C)S(=O)(=O)c2cccc(C(=O)Nc3nc(C)cs3)c2)cc1	0.0%
49	-1.6	20.3%	4.0%	Cc1cccc(NC(=O)CSc2nnnn2-c2cccnc2)c1	0.9%
50	1.2	-12.0%	-0.3%	COc1ccc(-c2noc(CNC(=O)Nc3ccc(F)cc3)n2)cc1	-0.2%
51	/	16.0%	0.6%	Cc1ccc(NC(=O)CSc2nc3c(c(=O)n(C)c(=O)n3C)n2C)cc1	1.4%
52	/	7.8%	1.8%	COC(=O)CCC(=O)NC(=S)Nc1ccc(S(=O)(=O)Nc2cc(C)on2)cc1	1.7%
53	/	?	/	C=C1C(=O)c2sccc2C(c2ccc(OC)c(OC)c2)C1COC(C)=O (stereo not given)	0.4%
54	9.0	11.1%	-45.8%	Cc1ccc(Nc2ncnc3nc[nH]c23)cc1Cl	-0.4%
55	0.6	?	-26.4%	CCN1C(=O)c2cccc3c(S(=O)(=O)Nc4ccccn4)ccc1c23	?
56	/	-0.9%	/	CC(OC(=O)Cn1[nH]c(=O)c2ccccc2c1=O)C(=O)Nc1ccccc1[N+](=O)[O-] (stereo not given)	?
57	/	0.7%	/	CC[C@@]12C(=O)N(c3cccc(Br)c3)C(=O)N1[C@H](c1ccc(F)cc1)[C@@H]1C(=O)N(C3CCCCC3)C(=O)[C@@H]12	-0.1%
58	/	-13.9%	/	COc1ccc(C(=O)/C=C/c2ccc(O)cc2)c2c1CC(O)C(C)(C)O2 (stereo not given)	?
59	/	-12.8%	/	COc1cccc(N2CCN(C(=O)CN3C(=O)NC(C)(c4ccc5ccccc5c4)C3=O)CC2)c1 (stereo not given)	-0.8%
60	/	0.0%	1.7%&7.0%	Cc1nc2scc(C)n2c(=O)c1S(=O)(=O)N1CCN(c2cccc(C(F)(F)F)c2)CC1	1.5%
61	-1.1&-1.8	13.6%	-19.4%	COc1ccccc1CNC(=O)c1ccc(Br)o1	0.5%
62	/	1.4%	5.6%	CC1Sc2ccc(S(=O)(=O)CCC(=O)NC(C)c3ccccc3)cc2NC1=O (stereo not given)	1.4%
63	-0.3	10.1%	-10.1%	O=C1CCCc2c1nc(-c1cccc(Cl)c1)n2O	-0.8%
64	/	-12.9%	-2.5%	Cc1nc2sccn2c(=O)c1S(=O)(=O)NCC(C)c1ccccc1 (stereo not given)	-2.6%
65	-3.2	-10.1%	-4.0%	CCCCNC(=O)C1CCCN(S(=O)(=O)c2c(C)noc2/C=C/c2cccs2)C1 (stereo not given)	2.2%
66	-11.1	17.6%	12.4%	Cn1nc(-c2ccc(Cl)cc2)c2cc(C(=O)NCCN3CCOCC3)sc21	-4.1%
67	/	-5.0%	-4.7%	CCn1cc(C(=O)N[C@@H](CCSC)C(=O)NCCCO)c(=O)c2cc3c(cc21)OCO3	0.0%
68	0.8	-3.6%	10.8%	CCCC(=O)N(CCc1ccc(OC)cc1)Cc1nc2ccccc2c(=O)[nH]1	0.6%
69	5.4	25.6%	-5.6%	COc1cc2c(=O)n(CC3CCCO3)c(=O)n(CC(=O)Nc3ccc(F)cc3F)c2cc1OC (stereo not given)	1.3%
70	0.3	-2.8%	-12.8%	Cc1occc1C(=O)NC1CCCc2ccccc21 (stereo not given)	-0.2%
71	/	5.4%	/	COc1ccc(-c2c(C#N)c(SCC(=O)Nc3ccccc3)nc3c2CCCC3)cc1	?
72	5.1	13.6%	-5.6%	COc1ccc(-c2[nH]ncc2CN2CCCN(C(=O)c3ccco3)CC2)cc1F	-3.7%
73	/	9.7%	/	CCN(C[C@H]1N[C@@](C)(C(=O)OC)[C@H]2C(=O)N(C)C(=O)[C@@H]12)C(=O)COC	0.1%
74	-4.5	/	0.3%	COC(=O)C1=C(C)N=c2s/c(=C3\C(=O)Nc4ccccc43)c(=O)n2C1c1ccccc1 (stereo not given)	/
75	/	-19.4%	/	CCOC(=O)C(C)N(c1ccccc1Cl)S(C)(=O)=O (stereo not given)	-2.9%
76	-2.8	-0.7%	?	COc1ccc(C(=O)/C=C/c2cc(OC)c(O)c(OC)c2)c(F)c1	?
77	/	?	/	COc1cccc(NC(=O)C(C)C)c1	3.3%

This is a subset; the hit share may differ from the screen's.
